Screening results from PubChem.
KCNQ2 pot: enhances the rat KCNQ2 potassium channel; CHO-K1 KCNQ2, FluxOR thallium flux fluorescence; stronger effect = higher value; B-score at 10 µM; 310,000 tested, 0.54% active;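 active = fluorescence ratio B-score at least 3 SD of library B-scores, with initial fluorescence B-score within 3 SD, cut at about 5.3 in these data; same plate scores as AID 2156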;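 note: B-score of peak minus minimum over baseline fluorescence ratio after K+ and Tl+ stimulus; positive B-score means potentiation of KCNQ2 with more thallium influx and brighter signal; only the inactives scoring about 0 or higher are listed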
Target sequence (O88943 whole entry, looked up): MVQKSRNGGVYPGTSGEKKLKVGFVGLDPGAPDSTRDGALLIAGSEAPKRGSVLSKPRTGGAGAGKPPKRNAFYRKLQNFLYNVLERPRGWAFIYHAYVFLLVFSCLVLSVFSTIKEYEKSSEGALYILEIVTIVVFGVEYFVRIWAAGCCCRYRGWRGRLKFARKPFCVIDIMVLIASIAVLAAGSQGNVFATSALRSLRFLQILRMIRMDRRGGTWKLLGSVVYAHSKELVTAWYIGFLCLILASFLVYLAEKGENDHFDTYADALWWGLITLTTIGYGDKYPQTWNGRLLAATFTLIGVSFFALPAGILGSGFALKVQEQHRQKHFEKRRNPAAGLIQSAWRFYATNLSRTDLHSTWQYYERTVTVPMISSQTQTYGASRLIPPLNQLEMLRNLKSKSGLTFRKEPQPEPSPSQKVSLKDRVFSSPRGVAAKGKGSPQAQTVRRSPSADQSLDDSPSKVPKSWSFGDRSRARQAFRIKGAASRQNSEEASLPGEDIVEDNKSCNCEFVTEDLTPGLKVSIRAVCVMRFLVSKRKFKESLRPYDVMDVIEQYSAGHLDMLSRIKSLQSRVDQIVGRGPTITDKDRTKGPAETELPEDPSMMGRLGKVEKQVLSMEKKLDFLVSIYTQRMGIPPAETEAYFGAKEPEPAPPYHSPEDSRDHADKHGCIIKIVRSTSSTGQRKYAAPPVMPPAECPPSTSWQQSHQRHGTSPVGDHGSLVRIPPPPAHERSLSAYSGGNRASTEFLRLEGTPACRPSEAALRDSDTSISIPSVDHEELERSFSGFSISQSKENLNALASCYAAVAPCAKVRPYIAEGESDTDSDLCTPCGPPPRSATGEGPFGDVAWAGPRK
KCNQ2 pot baseline: further read-out of KCNQ2 pot, marked with its call; B-score; compound at 10 µM; measured here: initial fluorescence intensity artifact check;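 brightness before thallium and not channel activity; 0 = typical well and far values either way flag optical interference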
* = called active by the depositor.

compound | KCNQ2 pot | KCNQ2 pot baseline
Cc1ccc(NC(=O)c2cc(S(=O)(=O)N3CCCCC3)c[nH]2)cc1C | 0.43 | -1.55
CC12CC3(C)CC(C)(C1)CC(C(=O)NC(=S)NC(C)(C)C)(C2)C3 | 1.41 | -0.48
CC1=C(c2ccccc2)CCC1=O | 0.04 | -1.47
Cc1ccc(C(=O)N/N=C\c2sccc2C)cn1 | 0.76 | 0.37
COc1cccc(-n2c(SCC(=O)Nc3cc(C)on3)nc3c([nH]c4ccccc43)c2=O)c1 | 1.24 | -1.12
CC(C)C(O)(C#CCN1CCCC1)c1ccccc1 (stereo not given) | 0.63 | 2.04
CCC(NS(=O)(=O)c1ccc(C)cc1)C(=O)N1CCC2(O)CCCCC2C1 (stereo not given) | 0.06 | 0.02
C[N+]1(CC(=O)Nc2ccc(F)cc2)CCN(C(=O)c2ccco2)CC1 | 0.02 | 0.45
O=C(Nc1ccc(SC(F)F)cc1)C1CC(=O)N(Cc2ccccc2)C1 (stereo not given) | 0.09 | 1.43
COc1ccccc1OCC(=O)NNC(=O)C(=O)N1CCCC1 | 0.02 | 1.42
O=C(c1ccco1)n1nc(NCc2ccccc2)nc1NCc1ccccc1 | 1.64 | -0.9
COCC(C)n1c(C)cc(C(=O)CSc2nc3ccccc3c(=O)[nH]2)c1C (stereo not given) | 1.62 | -0.21
COC(=O)c1sc(S(=O)(=O)Nc2ccc(C)cc2)c(C(=O)OC)c1C | 1.08 | -0.53
COc1cccc(N2CCN(C(=O)c3ccc(CS(=O)c4ccccc4C)o3)CC2)c1 (stereo not given) | 1.45 | 0.02
CC(CN1CCOCC1)C(=O)c1ccccc1 (stereo not given) | 0.03 | 0.18
Cc1ccc(NC(=O)c2cc(NC(=O)C3CC=CCC3C(=O)O)ccc2N2CCOCC2)cc1 (stereo not given) | 0.89 | 0.61
COc1ccccc1CNC(=O)c1oc2ccc(S(=O)(=O)N3CCOCC3)cc2c1C | 0.32 | -1.59
CCCCn1c(N)c(N(CCC(C)C)C(=O)COC(=O)c2ccccc2)c(=O)[nH]c1=O | 0.93 | 0.24
CC(C)Oc1ccc(N2CC(C(=O)NC3=NCCS3)CC2=O)cc1 (stereo not given) | 0.41 | -0.01
NC(=O)c1c(NC(=O)c2cccc(N3C(=O)CCC3=O)c2)sc2c1CCCCC2 | 1.51 | -1.6
Cc1nnsc1C(=O)N1CCCC(N2CCN(c3ccc(F)cc3)CC2)C1 (stereo not given) | 0.16 | 0.14
O=C(CC1(O)C(=O)Nc2ccccc21)c1cccc(-n2cccc2)c1 (stereo not given) | 0.38 | 0.02
COc1ccc(S(=O)(=O)N2CCOC2CNC(=O)C(=O)NCCc2c[nH]c3ccccc23)cc1C (stereo not given) | 0.03 | -2.17
COC(=O)C(/C=N/O)NC(=O)c1ccccc1 (stereo not given) | 1.39 | -1.2
CCOc1cc(N2CCOCC2)c(OCC)cc1NC(=O)COC(=O)CCn1c(C)csc1=O | 1.99 | -0.75
CC(=O)C1=C(O)C(=O)N(c2ccc(S(N)(=O)=O)cc2)C1c1ccc([N+](=O)[O-])cc1 (stereo not given) | 0.88 | 0.62
COCCCNC(=S)Nc1ccc2nc3n(c(=O)c2c1)CCCCC3 | 1.64 | 2.91
O=C(NNC(=S)NCc1ccco1)c1ccccc1Br | 0.16 | 0.3
CN(CC(=O)O)S(=O)(=O)c1ccc2c(c1)n(C)c(=O)c(=O)n2C | 0.09 | -0.15
O=C(NC1CCCC1)c1ccccc1-c1ccccc1 | 1.2 | 1.53
CCn1c(SCC(=O)c2ccccc2)nnc1-c1cccnc1 | 0.47 | 0.38
CC1(C)Cc2c(sc(NC(=O)COc3ccccc3)c2C#N)C(C)(C)N1 | 2.78 | -0.65
CCOC(=O)/C=C/C(=O)Nc1ccc(S(=O)(=O)Nc2cc(C)on2)cc1 | 0.03 | -0.93
C/C(=N\NC(=O)c1cccc(Br)c1)c1cccnc1 | 0.02 | 2.81
O=c1[nH]c2cc3c(cc2cc1CN(Cc1cccnc1)C(=S)NCc1ccco1)OCO3 | 0.3 | -0.09
CCN1C(=O)[C@H]2[C@@H](c3ccc(-c4ccc(C(C)=O)cc4)cc3)N[C@@](Cc3ccccc3)(C(=O)OC)[C@H]2C1=O | 0.04 | -0.49
O=C1CCc2cc(NS(=O)(=O)c3ccc(F)cc3)cc3c2N1CCC3 | 0.04 | -0.79
COc1cc(C(=O)Nc2ccncc2)c([N+](=O)[O-])cc1OC | 2.14 | 0.7
S=C(NCc1ccco1)Nc1cc(Cl)c(Cl)cc1Cl | 1.31 | -1.22
O=C(NC(=S)NNC(=O)c1ccccc1O)c1cccs1 | 0.95 | 0.34
CCSc1nnc(-c2ccncc2)o1 | 0.45 | 0.51
Cn1c(O)c(C(C#N)=C2N=c3ccccc3=N2)c2ccccc21 | 1.42 | 0.41
CC(C)N(Cc1nc(-c2ccccc2)no1)C(=O)CN(C)S(=O)(=O)c1ccccc1 | 0.8 | -0.02
Cc1ccc(C2=NOC(C)(c3nnc(Cc4ccccc4)o3)C2)cc1 (stereo not given) | 0.95 | -0.99
c1ccc(OCC2CCNCC2)nc1 | 0.3 | -1.51
OCCNC(=S)Nc1cc(Cl)cc(Cl)c1 | 2.71 | -0.86
O=C(CN1C(=O)COc2ccccc21)NCc1ccc(C(=O)O)cc1 | 0.22 | 1.22
CCc1ccc(C(N)=S)cc1 | 0.06 | -0.08
O=C(NCc1ccncc1)C(=O)N/N=C/c1ccc(OCc2ccccc2)cc1 | 1.05 | -0.77
CC(C)Cc1nnc(NC(=O)c2ccc(N3CCCC3=O)cc2)s1 | 0.77 | -1.37
O=C(c1ccc(CS(=O)c2cccc(Cl)c2)o1)N1CCN(c2ccccn2)CC1 (stereo not given) | 0.11 | -2.89
O=C(CSc1nc2ccccc2[nH]1)c1c[nH]c2ccccc12 | 0.19 | -0.31
O=C(CCCNS(=O)(=O)c1cccc2nsnc12)NCc1ccc(Cl)cc1 | 0.29 | -1.41
COC(=O)c1ccc(/C=C/c2ccc3cccc(OC)c3n2)cc1 | 3.24 | -2.13
Cc1ccc(NC(=O)c2cc3c(s2)CCCC3)cc1 | 1.76 | -0.04
O=C(Nc1ccc(Cl)cc1)Nc1cccnc1 | 0.17 | -0.35
COc1ccccc1NC(=O)CNc1ccc(F)c(Cl)c1 | 0.27 | -1.6
CC(C)CCN1CCN(C2CSCCSC2)CC1CCO (stereo not given) | 0.33 | 3.25
O=C(O)c1ccc(-c2sc(Nc3ccccc3)n[n+]2-c2ccc(F)cc2)cc1 | 0.83 | 0.64
COCC1CCN(Cc2cn(-c3ccccc3F)nc2-c2cc(C)sc2C)CC1 | 0.52 | -0.07

Arranged by formula weight (low to high): five of the compounds above.
compound | KCNQ2 pot | KCNQ2 pot baseline
Cn1c(O)c(C(C#N)=C2N=c3ccccc3=N2)c2ccccc21 | 1.42 | 0.41
COc1ccccc1NC(=O)CNc1ccc(F)c(Cl)c1 | 0.27 | -1.6
COC(=O)c1ccc(/C=C/c2ccc3cccc(OC)c3n2)cc1 | 3.24 | -2.13
O=C(CN1C(=O)COc2ccccc21)NCc1ccc(C(=O)O)cc1 | 0.22 | 1.22
CC(C)N(Cc1nc(-c2ccccc2)no1)C(=O)CN(C)S(=O)(=O)c1ccccc1 | 0.8 | -0.02

(continued)
compound | KCNQ2 pot | KCNQ2 pot baseline
Cc1ccc2cc(CN(CCCO)S(=O)(=O)c3ccccc3F)c(=O)[nH]c2c1C | 1.85 | -0.21
O=C(NCCCNC(=O)C(F)(F)C(F)F)C(F)(F)C(F)F | 0.05 | 0.36
CCSc1nnc(CCNS(=O)(=O)c2ccc(C(C)=O)cc2)n1C | 0.25 | 2.04
CC(=O)c1cc(OC(=O)c2ccncc2)ccc1OC(=O)c1ccncc1 | 0.09 | 0.37
COc1ccccc1C(=O)Nc1ccc2c(c1)nc(CN1CCCCC1)n2C | 1.66 | -0.87
CC(NC(=O)c1ccco1)c1ccc2c(c1)OCCO2 (stereo not given) | 1.25 | -0.79
O=C(Nc1nc2c(Br)cc(Br)cc2c(=O)s1)c1ccco1 | 4.29 | -1.08
Cc1ccc2nc(C)c(C(=O)N/N=C/c3cccs3)cc2c1 | 0.44 | 0.32
NC(=O)c1ccc(-n2nnnc2SCC(=O)Nc2ccc(F)cc2)cc1 | 1.6 | 0.15
CC1Oc2ccccc2N(Cc2cccc(F)c2)C1=O (stereo not given) | 2.98 | -2.92
Cc1nn(-c2ccccc2)nc1CNC(=O)C1CCC1 | 1.5 | 0.24
O=C(CCn1c(=S)oc2ccccc21)NC1CCCCCCC1 | 0.11 | 1.62
COc1ccc(N(C)S(=O)(=O)c2cccc(C(=O)NCc3ccc4c(c3)OCO4)c2)cc1 | 0.06 | 0.4
N#CCc1c(C#N)c(N)nc(N2CCN(S(=O)(=O)c3ccccc3)CC2)c1C#N | 0.41 | 0.1
O=C(O)c1ccc(NC(CSCc2ccc(F)cc2)C(=O)O)c([N+](=O)[O-])c1 (stereo not given) | 0.01 | -1.29
C#CCOCCOCCOCCNc1nc(N2CCN(C(=O)[C@H]([C@@H](C)CC)n3cc(CCCN=C(N)N)nn3)CC2)nc(N2CCN(C(=O)[C@H](CCCCN)n3cc(CCC(=O)O)nn3)CC2)n1 | 1.96 | -1.54
O=C(NCc1ccc(S(=O)(=O)Nc2ccccc2Cl)s1)c1ccccc1 | 1.08 | 0.26
O=C(NC1CCN(Cc2ccccc2)CC1)c1c(F)cccc1F | 0.16 | 1.09
COc1ccc(C(=O)Nc2ccc3oc(Cc4ccc(Cl)cc4)nc3c2)cc1OC | 1.21 | 1.1
OC(c1ccccc1)c1nc2ccccc2[nH]1 (stereo not given) | 0.22 | 0.89
c1ccc(-n2ncc3c(NCCCN4CCOCC4)ncnc32)cc1 | 0.79 | -0.76
Cc1nn(-c2ccccc2)c(C)c1NC(=O)Cc1cccs1 | 0.01 | -1.8
Cc1onc(-c2ccccc2)c1C(=O)N1CCCN2C(=O)c3ccccc3C21 (stereo not given) | 0.76 | 1.87
O=C(CSCC(=O)Nc1cccc2ccccc12)Nc1cccc2ccccc12 | 1.64 | -0.4
C[C@@H]1CC[C@]2(O[C@H](CCO)C[C@H](O)[C@H]2O)O1 | 0.9 | 0.3
O=C(Nc1ccc(N2CCOCC2)c(Cl)c1)c1ccco1 | 1.6 | -1.12
O=C(CCn1c(=O)c2ccccc2n(Cc2cc(=O)n3ccccc3n2)c1=O)NCc1ccco1 | 0.5 | 0.48
CC(C)NCC(O)COC1CCC(C(C)(C)C)CC1 (stereo not given) | 0.68 | 1.32
Cc1cccc(C(=O)NCCCN(C)CCCNC(=O)c2cccc(C)c2)c1 | 0.56 | -0.52
CCOC(=O)CSc1nc(C)c2cccc(C)c2n1 | 1 | -1.1

Entries of single compounds, looked up by structure.
CCSc1nnc(-c2ccncc2)o1 in the list: KCNQ2 pot = 0.45; KCNQ2 pot baseline = 0.51
Cc1ccc(NC(=O)c2cc3c(s2)CCCC3)cc1 in the list: KCNQ2 pot = 1.76; KCNQ2 pot baseline = -0.04

Next compounds.
compound | KCNQ2 pot | KCNQ2 pot baseline
Cc1cc(/C=C2\SC(=O)NC2=O)c(C)n1-c1ccc(N2CCOCC2)cc1 | 0.73 | -0.02
COc1cc(/C=C2/C(=O)N(c3cccc(Br)c3)N=C2C)cc(OC)c1O | 0.56 | -0.06
Cc1nnsc1C(=O)Nc1ccccc1Cl | 0.56 | 2.02
O=C(c1ccccc1)N1CCCC(c2ccc(Cl)cc2)=N1 | 0.24 | -0.44
O=C(Nc1cccc(Cl)c1)C1CCCN(c2cnccn2)C1 (stereo not given) | 0.98 | -0.47
FC(F)(F)c1cccc(-c2ccn3ncnc3n2)c1 | 0.5 | 0.28
CCCNc1nc2c(c(=O)n(C)c(=O)n2C)n1Cc1ccc(F)cc1 | 0.63 | 0.13
Cc1occc1C(=O)N/N=C/c1cccc2ccccc12 | 0.91 | 0.1
O=C(/C=C/c1ccccc1)N1CCN(S(=O)(=O)c2ccc(F)cc2)CC1 | 0.84 | 1.37
S=c1nccc(-c2cc(Cl)sc2Cl)[nH]1 | 1.65 | -0.9
CCO[C@H]1OC(C(=O)N2CCN(Cc3ccc4c(c3)OCO4)CC2)=C[C@@H](C(C)(C)C)[C@@H]1CCCO | 0.01 | -0.4
Cc1noc2ncnc(Oc3ccc4ccccc4c3)c12 | 0.26 | 0.02
COc1ccc(C2CC(c3ccc(OC)c(OC)c3)=NN2C(=O)c2ccccc2)cc1 (stereo not given) | 0.04 | 0.31
CCC(Cc1ccccc1)NC(=O)CN(C)S(=O)(=O)c1ccc2c(c1)c(=O)n(C)c(=O)n2C (stereo not given) | 0.39 | 0.14
CCOC(=O)NC(=O)c1cn(Nc2ncc(Cl)cc2C(F)(F)F)c(=O)[nH]c1=O | 0.07 | 0.04
O=C(Nc1ccc([N+](=O)[O-])cc1)c1cc(Cl)sc1Cl | 0.33 | 0.32
Cc1c(C(=O)NCc2ccc3c(c2)OCO3)oc2ccc(S(=O)(=O)N3CCCC3)cc12 | 2.28 | -0.41
Cc1cc(C)nc(N2CCC(C(=O)Nc3ccc(Oc4ccccc4)cc3)CC2)n1 | 0.07 | -1.6
CC(C)C/C=C1\CCc2c([nH]c3ccccc23)C1=O | 2.16 | -0.21
Cc1[nH]c2ccccc2c1C(=O)CSc1nc2ncc(Cl)cc2[nH]1 | 1.58 | 0.02
CN(C)CCN1C(=O)C2C3C=CC(C3)C2C1=O (stereo not given) | 0.15 | 0.67
C=CCn1c(COc2ccc(CC)cc2)nnc1SCC(=O)N(C)C1CCS(=O)(=O)C1 (stereo not given) | 0.46 | -0.62
C[C@@H]1CCC[C@@]2(O[C@@H](CCO)C[C@@H](O)[C@@H]2O)O1 | 0.21 | 0.56

The list is partial; count on the stated rates, not on these rows.
